High-throughput results (PubChem)
D2 ag = agonists of human D2 dopamine receptor (beta-arrestin). DiscoveRx PathHunter D2 beta-arrestin, luminescence, 90 min; 100% = 57 uM dopamine signal. activation, % (test concentration not listed). 360,000 compounds, 0.084% hits. AID 624465; in the data active = activation above about 40%; inconclusive = about 15% to 40%; inactive = below about 15%; further: compound concentration not given in the record; the text of the record calls up to 30% inactive
Target sequence (P14416 whole entry, looked up): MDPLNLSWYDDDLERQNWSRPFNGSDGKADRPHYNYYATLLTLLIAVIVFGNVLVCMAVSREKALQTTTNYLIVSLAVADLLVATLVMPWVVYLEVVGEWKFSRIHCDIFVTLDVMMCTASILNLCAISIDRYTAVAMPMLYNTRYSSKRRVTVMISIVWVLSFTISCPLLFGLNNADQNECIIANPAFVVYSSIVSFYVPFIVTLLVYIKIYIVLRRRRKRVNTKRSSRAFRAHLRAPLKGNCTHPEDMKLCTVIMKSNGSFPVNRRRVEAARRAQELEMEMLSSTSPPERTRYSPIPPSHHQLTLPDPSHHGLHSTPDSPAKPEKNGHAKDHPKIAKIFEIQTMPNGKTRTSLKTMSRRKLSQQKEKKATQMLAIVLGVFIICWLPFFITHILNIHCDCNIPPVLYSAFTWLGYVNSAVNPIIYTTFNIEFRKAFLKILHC
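DiscoveRx PathHunter D2 beta-arrestin cells (2,100/well) attached overnight, then compound-stimulated 90 min at 37 C in HBSS/10 mM HEPES/0.1% Tween-20 buffer; beta-galactosidase complementation read by luminescence after 1 h at ambient temperature. Dopamine 57 uM final (EC100) as control.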
PINK1 modulator = modulators of PINK1 expression; PINK1 immunofluorescence, high-content cytometry, 24 h; Potency, µM (doses to about 76.6 µM), for inactives: top-dose activation (PINK1 increase), usual class: activators; 410,000 compounds, 0.2% hits; active = well fitted activation curve with a large enough effect; inconclusive = small, poorly fitted or top-dose-only effect; inactive = flat fitted curve, though single readings scatter; cell line not stated here;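 further: potency means the concentration at half of the fitted maximal effect; % of control where 0% means no effect; nearly all actives have a fitted effect of over 65% in size; a mitochondrial uncoupler was the plate control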
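Fluorescence from anti-PINK1 antibody, together with nuclear and cell stains, was scanned on a laser-scanning cytometer. Before staining, stable-line cells were incubated 24 hours with compounds at 5 concentrations; primary antibody 12 h at 10 degrees C.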
TRPML1 agonist = agonists of human TRPML1 channel; TRPML1-expressing cells, Ca2+ dye fluorescence, FDSS; host cell line not named in the record; reference of the full effect not given here; activation, % (test concentration not listed); 410,000 compounds, 0.12% hits; AID 624414; in the data active = activation above about 50%; inconclusive = about 30% to 50%; inactive = below about 30%; further: 0% is about no effect; the text of the record puts the active cut at 80%
Target sequence (Q9GZU1 whole entry, looked up): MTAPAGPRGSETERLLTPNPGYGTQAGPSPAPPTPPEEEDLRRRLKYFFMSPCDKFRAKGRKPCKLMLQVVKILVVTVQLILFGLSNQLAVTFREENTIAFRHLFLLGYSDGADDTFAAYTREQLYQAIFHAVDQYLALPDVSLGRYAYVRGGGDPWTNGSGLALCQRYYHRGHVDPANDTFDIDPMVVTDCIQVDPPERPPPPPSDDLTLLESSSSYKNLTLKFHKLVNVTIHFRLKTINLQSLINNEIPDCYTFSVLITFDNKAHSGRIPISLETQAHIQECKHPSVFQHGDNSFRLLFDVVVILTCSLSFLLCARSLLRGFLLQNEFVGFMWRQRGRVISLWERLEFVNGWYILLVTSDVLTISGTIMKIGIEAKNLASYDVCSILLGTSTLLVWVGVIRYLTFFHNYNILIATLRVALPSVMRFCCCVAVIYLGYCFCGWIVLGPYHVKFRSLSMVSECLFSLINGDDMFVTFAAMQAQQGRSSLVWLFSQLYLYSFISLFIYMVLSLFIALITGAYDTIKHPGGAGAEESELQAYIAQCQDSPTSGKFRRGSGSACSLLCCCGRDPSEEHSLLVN
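Agonist activity was taken from a 110 s kinetic Ca2+ dye read on the FDSS after pinning compounds onto TRPML1-DL cells. The cells were seeded at 1,500/well with Tet inducer, incubated about 16 h, then dye-loaded at room temperature.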
Six1-Eya2 blk = blocks human Six1 binding to Eya2; AlphaScreen GST-Six1/His-Eya2 binding, biochemical; stronger effect = lower value; control for the full effect not named in the record; 360,000 compounds, 0.56% hits; Q15475+O00167; activity change, % (no concentration beside the values); in the data active = activity change below about -65%; inconclusive = about -30% to -65%; inactive = above about -30%; further: on the % scale 0 is the no-effect control and ±100 the full control effect
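Six1/Eya2 binding was read as AlphaScreen signal after compounds were pinned into GST-Six1 plus His-tagged Eya2 (5X stock 250/500 nM) in pH 8.0 Tris/NaCl/TCEP buffer, beads added, then incubated 1 h, 37 C, dark.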
D2 PAM = potentiates the human D2 dopamine receptor allosterically; P14416; DiscoveRx D2 beta-arrestin cells, luminescence, 90 min; 100% = 57 uM dopamine signal; potentiation, % (no concentration beside the values); 360,000 compounds, 0.23% hits; AID 624464; active = potentiation of 50% or more; inconclusive = 30% to 50%; inactive = 30% or less;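 further: compound concentration not given in the record; tested on top of an EC20 dose of dopamine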
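PathHunter beta-arrestin assay in DiscoveRx D2 cells. Compounds were added with an EC20 of dopamine (50 nM final) for 90 min at 37 deg C. Luminescence was read 1 h after detection reagent, with 57 uM dopamine as the EC100 control.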
TRPML1 blocker = inhibitors of human TRPML1 channel; Q9GZU1; TRPML1-inducible cells, Ca2+ dye fluorescence, FDSS; stronger effect = lower value; inhibition of EC80 agonist-evoked calcium signal; activity change, negative = inhibition, % (no concentration beside the values); 390,000 compounds, 0.02% hits; AID 624415; in the data active means activity change below about -50%; inconclusive means about -30% to -50%; inactive means above about -30%;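 further: stimulus is agonist 54-4 at its EC80 concentration; on the % scale 0 is the no-effect control and ±100 the full control effect; compound concentration not given in the record; the text of the record puts the active cut at -80%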
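Tet-induced TRPML1-DL cells loaded with Ca8 no-wash calcium dye were read kinetically on FDSS. Compound addition was followed by EC80 agonist 54-4 (4 uM final); inhibition was read over 110 s.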
Numbers without * were called inactive; ? = inconclusive; / = not tested or not shown; & = joins results of further samples; [ ] = another dose, or the depositor's remark.

SMILES	D2 ag	PINK1 modulator	TRPML1 agonist	Six1-Eya2 blk	D2 PAM	TRPML1 blocker
CC1CCCCN1Cc1ccc(N)cc1 (stereo unspecified)	0.5	-1.0%	0.2	3	-11	6
COC(=O)c1ccc(CNC(=O)COC(=O)CCC(=O)c2ccc(F)cc2)cc1	0.8	1.4%	1.9	5	-6	0
CC(C)CN(C(=O)CCC(=O)OCC(=O)c1ccc(F)c(F)c1)c1c(N)n(CC(C)C)c(=O)[nH]c1=O	-2.0	0.0%	0.3	14	-14	-16
CCOC(=O)c1cc(-c2ccc(OC)cc2)n(CCC(=O)Nc2ccccc2OC)c1C	/	0.6%	1.6	/	/	11
Cc1ccccc1-c1nc2cc(NC(=O)C3CC3)ccc2o1	0.4	?	-0.5	-4	0	11
CCCCN(C)CCCNC(=O)CN1C(=O)COc2ccc(S(=O)(=O)N3CCOCC3)cc21	-4.8	-0.8%&2.4%	0.5&0.6	4	-14	2&-5
Cc1ccc(C)c(-c2nnc(NC(=O)Cc3ccc(F)cc3)o2)c1	-0.2	4.9%	1.9	2	-14	31
O=C(N=C1SC2CS(=O)(=O)CC2N1c1ccc(F)c(Cl)c1)C1CCCO1 (stereo unspecified)	-0.2	2.2%	-0.2	0	-3	40
COCCc1nn2c(=O)cc(COC(=O)COc3ccc(F)cc3)nc2s1	/	1.3%	0.2	/	/	-12
COc1ccc(OC)c(-c2nc3ccccc3nc2-c2ccccc2)c1	-3.7	5.8%	0.5	22	-6	12
Cc1nc(CCNC(=O)C2CCC(=O)N(Cc3ccc(Cl)cc3)C2)sc1C (stereo unspecified)	-3.0	-1.3%	-1.1	5	-4	-8
COc1ccc(N2CC(C)(C)[C@H](CC(=O)Nc3ccccc3)C2=O)cc1	-6.1	-2.8%	0.2	5	-2	-5
COc1ccc(C(O)c2nccn2Cc2ccccc2)cc1 (stereo unspecified)	-2.7	15%[38.3 µM]	0.9	0	-10	-5
CC(Sc1cccc[n+]1[O-])C(=O)Nc1cccc(S(=O)(=O)N2CCOCC2)c1 (stereo unspecified)	-0.5	-2.0%	1.1	12	-6	20
COc1ccc2c(c1)c(C(C)=O)c(C)n2C	-0.5	-1.4%	0.1	-2	2	9
Cc1csc2nc(CNS(=O)(=O)c3ccc4c(c3)CCCC4)cn12	-2.8	0.9%	0.5	-3	-9	16
COc1ccc(CC(=O)Nc2ccc3c(c2)CCC3)cc1	-3.0	1.9%	2.0	2	-20	19
COC(=O)c1c(C(=O)OC)c2cccc3cc(-c4ccccc4)c4ccc1c4n32	-2.7	4.8%	1.3	?	3	14
COCCCNC(=O)C1CC(=O)N(CCc2ccc(F)cc2)C1 (stereo unspecified)	-4.1	0.5%	-0.2	15	-8	16
Cc1ccc(C)c(CN2C(=O)c3ccccc3S(=O)(=O)c3ccc(C(=O)NCCc4ccc(Cl)cc4)cc32)c1	/	0.8%	4.0	/	/	-9
Cc1c(C(=O)O)sc(S(=O)(=O)N2CCN(C(=O)CCc3ccccc3)CC2)c1C(=O)O	4.8	1.9%	0.2	3	13	-2
C=CCOc1ccc(Br)cc1CNCCO	-6.0	-2.0%	0.0	-10	-2	3
Cc1cc(C)nc(SC2CCCCC2NS(=O)(=O)c2ccc(Cl)cc2)n1 (stereo unspecified)	-0.1	2.9%	0.5	0	4	-5
CCNc1nc(NCC)n2c(SC(C(=O)Nc3cc(C)ccc3C)c3ccccc3)nnc2n1 (stereo unspecified)	-6.8	-1.0%	1.2	2	-7	-4
O=C1COc2ccc(C(=O)COC(=O)CCSc3ccc(Cl)cc3)cc2N1	-4.1	9.4%	3.0	2	0	-5
SMILES	D2 ag	PINK1 modulator	TRPML1 agonist	Six1-Eya2 blk	D2 PAM	TRPML1 blocker
O=C(CSc1nnc2ccccn12)Nc1nsc(-c2ccccc2)n1	-1.4	2.2%	0.7	-7	-4	9
CC1CC(C)CN(C(=O)CCCn2c(=S)[nH]c3ccccc3c2=O)C1 (stereo unspecified)	-2.8	7.0%	0.2	-2	-8	-17
C[C@@H]1CN([C@H](C)CO)C(=O)CCCn2nncc2CO[C@H]1CN(C)C(=O)Nc1ccc2c(c1)OCO2	-4.7	1.1%	-0.2	0	-1	-10
CC(C)(C)c1ccc(OCCCNCc2ccccc2)cc1	-5.6	-1.4%	0.7	5	-31	-2
CCOc1ccccc1NC(=O)CN1C(=O)CSC(C)C1=O (stereo unspecified)	0.8	0.7%	-1.0	0	0	3
COc1ccc2c(c1)C(C)=CC(C)(C)N2C(=O)CN1C(=O)CCC1=O	2.4	-0.3%	1.6	-10	-6	-23
O=C(Nc1nc2ccccc2[nH]1)c1cc2ccccc2o1	-0.2	13%	-0.6	29	-3	-9
Cn1c(Cc2ccccc2)nnc1SCCC(=O)Nc1ccccc1	-3.1	-1.2%	0.6	8	-3	-6
Cc1cn(CC(=O)NCCc2c[nH]c3ccccc23)c(=O)[nH]c1=O	-0.4	-0.5%	-0.4	0	-8	-1
CCc1cc2c(NCCC(=O)O)ncnc2s1	-1.3	0.0%	0.8	2	-4	12
O=C(COc1ccc(Cl)cc1)NCc1nnc(SCC(=O)NC2CCCCC2)o1	0.9	4.3%	-1.3	6	-2	3
Cc1cc(Cl)ccc1OCCCC(=O)N1CCCc2ccccc21	0.1	/	2.8	21	-4	37
Cc1nc2nc(-c3cccs3)[nH]c2cc1Br	7.5	-1.5%	-0.8	-17	3	0
Cc1ccc(C)c(N2CCN(C(=O)c3csc(C)c3C)CC2)c1	0.0	-0.7%	0.6	1	-4	18
NC(=O)C1CCN(C(=O)COc2cccc3cccnc23)CC1	-2.3	-0.7%	0.2	9	-8	6
COc1ccc(C(C)=O)cc1CSc1nnc(-c2ccc(Cl)cc2)n1-c1ccccc1	0.9	-3.1%	8.0	-12	8	38
C/C(=N\OC(=O)c1ccc(Cl)cc1)c1sc(-c2ccccc2)nc1C	2.0	-1.1%	-0.3	4	-16	-6
CCCCn1c(N)c(N(CC)C(=O)C2=COCCO2)c(=O)[nH]c1=O	-6.8	-0.7%	0.3	0	-12	-14
Cc1[nH]nc2c1C1(CCN(C(=O)c3ccccc3)CC1)C(C#N)=C(N)O2	-3.8	-3.5%	0.5	-1	-1	-2
CCCCn1c(N)c(N(CC(C)C)C(=O)c2ccc(N3C(=O)CCC3=O)cc2)c(=O)[nH]c1=O	2.2	-1.1%	-0.3	6	3	-17
COc1ccc(C(=O)Nc2cc3c(cc2Cl)OCCCO3)cc1	-2.9	-3.0%	1.4	5	-6	5
Cc1ccc(C(=O)c2c3ccc(C(F)(F)F)cc3nn2CCC(N)=O)cc1	2.6	1.5%	0.3	6	-20	-7
CCSc1oc(-c2ccccc2)nc1S(=O)(=O)c1ccccc1	-2.7	-1.5%[38.3 µM]	0.1	1	-5	-3
CCOC(=O)Cc1nnc(NC(=O)CSc2nnc3c4ccccc4n(C(C)C)c3n2)s1	-1.0	-1.8%	-0.6	-24	-8	5
O=C(Nc1ccc(Br)cc1)c1ccc(Br)c(S(=O)(=O)N2CCCCC2)c1	/	1.3%	0.6	/	/	61
SMILES	D2 ag	PINK1 modulator	TRPML1 agonist	Six1-Eya2 blk	D2 PAM	TRPML1 blocker
CC(=O)Nc1cccc(-c2ccnc3c2CC(C(=O)Nc2cccnc2)O3)c1 (stereo unspecified)	2.9	3.2%	-0.9	0	4	-9
Cc1ccc2nc(C(=O)N3CCc4c([nH]c5ccccc45)C3c3ccccn3)cn2c1 (stereo unspecified)	-2.0	3.2%	-0.4	-10	-26	21
CC1NC(=S)N(Cc2ccccc2)C1=O (stereo unspecified)	-8.3	-0.3%	0.8	6	-17	21
O=C(NCc1cccc(F)c1)C1CCC(=O)N(C2CCCC2)C1 (stereo unspecified)	0.1	2.9%	-1.0	-17	-3	8
CC(C)C[C@H]1CNC(=S)N1CC1CCN(CCCCc2ccccc2)CC1	-2.7	-0.2%	-1.3	7	-18	34
COc1ccc(/C=C2\SC(=S)N(CCC(=O)NCCCN3CCOCC3)C2=O)cc1	-1.0	1.6%	-0.7	-9	-9	2
O=C(NCc1ccccc1Cl)c1cccc2c1C(=O)c1ccc(-c3ccc(OC(F)(F)F)cc3)cc1S2(=O)=O	-1.0	?	0.1	0	-8	16
CCCc1nn2c(=O)cc(COC(=O)c3ccc(NC(=O)COc4ccccc4F)cc3)nc2s1	/	0.1%	0.8	/	/	?
Cc1cc(N2CCN(Cc3ccc4c(c3)OCO4)CC2)n2ncnc2n1	0.3	-2.5%[38.3 µM]	-0.1	2	-10	4
CCOC(=O)C1CCN(C(=O)/C=C/c2cc(OC)c(OC)c(OC)c2)CC1	-1.1	-0.8%	0.3	1	-12	-7
CC(C)(C)NC(=O)C(c1ccncc1)N(Cc1cccs1)C(=O)c1csnn1 (stereo unspecified)	-1.0	1.3%	0.3	5	-4	-21
CC(C)c1ccc(C(=O)CSc2n[nH]c(-c3ccncc3)n2)cc1	0.4	2.9%	0.5	-2	11	-12
CCOc1cc(S(=O)(=O)n2c(C)nc3ccccc32)ccc1F	-2.3	9.5%	0.6	3	-11	-7
CCOC(=O)c1cc(-c2ccc(C)o2)nn1CCC#N	0.3	0.4%	-0.4	-1	-6	20
Cc1ccc(CNC(=O)CCc2c(C)nc3c4c(C)cc(C)nc4nn3c2C)cc1	/	1.5%	1.4	/	/	15
Clc1ccc2nc(CSCc3ccccc3)cn2c1	1.8	3.4%	1.1	7	-4	47
COc1ccc(-c2nnc(SCC(=O)N3CCCc4ccccc43)o2)cc1OC	-2.7	0.1%	1.6	27	-4	-4
Cc1cc(C(=O)OCC(=O)N(C)C2CCS(=O)(=O)C2)c(C)n1-c1ccccc1 (stereo unspecified)	-0.6	-0.3%	-0.8	-4	-7	-9
O=C1CC(Nc2ccccc2)C(=O)N1c1ccc(N2CCOCC2)cc1 (stereo unspecified)	-0.1	-0.6%	0.0	1	0	-1
Cc1cn(C)c(=O)n(C)c1=O	-0.9	0.6%	/	8	-14	/
COc1cccc(NC(=O)C(=O)NCC(c2ccc3c(c2)OCO3)N2CCN(C)CC2)c1 (stereo unspecified)	/	-0.2%	-0.4	/	/	5

Exported bar-delimited: entries from further up.
SMILES | D2 ag | PINK1 modulator | TRPML1 agonist | Six1-Eya2 blk | D2 PAM | TRPML1 blocker
CC1NC(=S)N(Cc2ccccc2)C1=O (stereo unspecified) | -8.3 | -0.3% | 0.8 | 6 | -17 | 21
O=C(NCc1cccc(F)c1)C1CCC(=O)N(C2CCCC2)C1 (stereo unspecified) | 0.1 | 2.9% | -1.0 | -17 | -3 | 8

Arranged by number of heavy atoms (lowest first): 3 of the compounds above.
SMILES	D2 ag	PINK1 modulator	TRPML1 agonist	Six1-Eya2 blk	D2 PAM	TRPML1 blocker
CC1NC(=S)N(Cc2ccccc2)C1=O (stereo unspecified)	-8.3	-0.3%	0.8	6	-17	21
Cc1cc(N2CCN(Cc3ccc4c(c3)OCO4)CC2)n2ncnc2n1	0.3	-2.5%[38.3 µM]	-0.1	2	-10	4
CC(=O)Nc1cccc(-c2ccnc3c2CC(C(=O)Nc2cccnc2)O3)c1 (stereo unspecified)	2.9	3.2%	-0.9	0	4	-9
